NPYLR7 agonist – activates Aedes aegypti NPYLR7 receptor | HEK293T NPYLR7/Galpha15, GCaMP6s calcium fluorescence | actives 0.15% (n = 270,000) | AID 1259423 | activation, % at 10 µM; in the data active = activation above about 40%;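 note: 0% = vehicle and 100% = reference agonist at the receptor; some compounds past the cut are filed as inactive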
NPYLR7 agonist max-min – recorded beside NPYLR7 agonist, whose call it bears; activation, %; measured here: Max-Min RFU normalised activation; some inactives read as strong as hits;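 span of the calcium signal over five minutes; 0% = vehicle and 100% = native peptide agonist; compound fluorescence can raise it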
Numbers without * were called inactive; & = joins results of further samples. Some of the compounds tested (hit frequency here may not be typical).

cpd	Compound	NPYLR7 agonist	NPYLR7 agonist max-min
1	COc1ccc(CC(=O)N2CCN(c3c4c(nc5ncnn35)CCCC4)CC2)cc1OC	32	21
2	COC(=O)NC(CC(C)C)C(=O)N1CCC(NC(=O)c2scnc2C)CC1 (stereo unspecified)	6	4
3	Cc1ccc2[nH]c(=O)c(-c3noc(C(C)C)n3)cc2c1	3	-3
4	NCCCC1(C2OCCO2)CCOCC1	23	17
5	CCCC(NC(=O)CSCc1nc2sc3c(c2c(=O)[nH]1)CCCC3)c1ccccc1 (stereo unspecified)	15	5
6	CC(=O)Oc1ccc2oc(=O)c3c(c2c1)CCCN3C(=O)CN1CCCCC1	1	-2
7	Cc1ccc(-c2csc3nc(C)n(-n4cccc4)c(=O)c23)o1	0	-3
8	COc1ccc(C)cc1S(=O)(=O)NCc1ccc(Cl)cc1	26	12

Continued, overlapping the part above by three compounds.
cpd	Compound	NPYLR7 agonist	NPYLR7 agonist max-min
6	CC(=O)Oc1ccc2oc(=O)c3c(c2c1)CCCN3C(=O)CN1CCCCC1	1	-2
7	Cc1ccc(-c2csc3nc(C)n(-n4cccc4)c(=O)c23)o1	0	-3
8	COc1ccc(C)cc1S(=O)(=O)NCc1ccc(Cl)cc1	26	12
9	CCOc1cccc(-c2ccc3nc(-c4ccccc4)c(CCC(=O)NCCN4CCOCC4)n3c2)c1	7	2
10	Cc1cccc(CSc2nnc(C(C)NC(=O)Nc3ccc(Cl)cc3)n2-c2ccc([N+](=O)[O-])cc2)c1 (stereo unspecified)	8	21
11	CCOC(=O)c1cc(-c2ccc3ccccc3c2)n(-c2ccc(C(=O)NCCc3ccc(OC)cc3)cc2)n1	2	-1
12	COCc1cc(C)nc(OCC(=O)N/N=C\c2cc(Br)c(OC)cc2OC)c1C#N	-10	-11
13	CC(C)NC(=O)N(Cc1cc(NC(=O)C2CC2)ccc1N(C)C)CC1CC1	-2	4
14	CCOC(=O)Nc1ccc(NC(=O)NCCC(C)C)cc1	0	-1
15	Nc1ncc(C(=O)N2CC(c3cccnc3)C2)c(-c2ccccc2)n1	24	26
16	N[C@H]1CONC1=O	10&6	-2&-7
17	Cc1nn(C)c(C)c1CCC(=O)NC(C)c1ccccc1-n1cccn1 (stereo unspecified)	-6	-9
18	CCCCN(CC(=O)N(CCc1ccc(OC)c(OC)c1)Cc1ccc(C)o1)C(=O)Nc1ccccc1C	-12	-23
19	C=CCN(CC=C)C(=O)CN(CC(=O)N(CCc1c[nH]c2ccccc12)Cc1ccc(Cl)c(Cl)c1)CC(C)C	-1	3
20	c1cnc(-c2nc3c4c(ncn3n2)CCC4)cn1	9	6
21	Cc1ccc2nsnc2c1S(=O)(=O)NC1CC1	10	11
22	Cc1ccc(C)c(C2c3cccn3CCCN2Cc2ccc(F)cc2)c1 (stereo unspecified)	4	15
23	Cc1nn(C)c(NS(=O)(=O)c2ccc(C(N)=O)cc2)c1C	7	5
24	O=C1CC(N2CCN(c3ncccn3)CC2)C(=O)N1c1ccc(F)cc1 (stereo unspecified)	0	-3
25	O=C(c1nc2ccccc2s1)N(CCCN1CCOCC1)c1nc2c(Cl)cccc2s1	-3	-7
26	Cc1ccccc1CCN1CCC(CN(C(=O)C2CCOCC2)C2CCCC2)CC1	12	7
27	CCOc1ccc2nc(SCC(=O)N3c4ccccc4CCc4ccccc43)sc2c1	-4	-12
28	CCCCCCc1ccc(C(=O)N2CCc3nc(-c4ccccc4)nc(N(C)C)c3C2)cc1	15	17
29	Cc1nc(-c2ccccc2)c(C(=O)N2CCCC3(CC2)CNC(=O)O3)s1 (stereo unspecified)	18	8
30	C=CCOc1ccc(C=CC(=O)c2ccc(OCC(=O)N(C)C)cc2)cc1	-1	-2
31	CC1(C(=O)NS(=O)(=O)c2ccc(F)cc2F)CCN1C(=O)CC1CCCC1 (stereo unspecified)	7	3
32	CCc1nc(CN(C)C(=O)C2CC(C(C)C)=NO2)no1 (stereo unspecified)	1	0
33	COc1nc(-c2ccc(Cl)c(Cl)c2)n(-c2ccc(NCC(O)COC(C)C)cc2)n1 (stereo unspecified)	2	7
34	CC(C)Cn1c(=O)c2c(nc3n2CC(C)CN3C2CCCCC2)n(C)c1=O (stereo unspecified)	-2	-7
35	Cc1nc(Nc2ccc(NS(=O)(=O)c3ccc(OC(F)(F)F)cc3)cc2)cc(-n2ccnc2)n1	-4	-4
36	FC(F)(F)c1nnc(N2CCN(c3ccc(Cl)cc3)CC2)s1	5	8
37	CCOc1cc(C)c(Cl)cc1S(=O)(=O)NCc1ccc2c(c1)OCO2	3	0
38	Oc1ccc(OC2CCCCO2)cc1 (stereo unspecified)	0	-3
39	COc1ccc(CCNC(=O)c2cccnc2N2CCN(C(=O)NCCCc3ccccc3)CC2)cc1OC	14	-2
40	Cc1cc(C(=O)NCCCN=C2NS(=O)(=O)c3ccccc32)ccc1[N+](=O)[O-]	1	-2
41	COc1ccc(Nc2ssc(=O)c2Cl)cc1OC	-8	-12
42	O=C(COc1ccc([N+](=O)[O-])cc1Cl)Nc1ccc([N+](=O)[O-])cc1	-7	-13
43	CCN(CC)S(=O)(=O)c1ccc(=O)n(CC(=O)N2CCCC(C(=O)Nc3cccc(C)n3)C2)c1 (stereo unspecified)	-1	14
44	COc1ccccc1-c1cccc(C(=O)NCC2CC(=O)N(C(C)C)C2)c1 (stereo unspecified)	1	-2
45	Clc1ccc(C2=Nn3c(Cc4ccccc4)nnc3SC2)cc1	12	13
46	COc1ccc(N2CCN(c3cc(C(=O)N4C(C)C=CC4C)c4ccccc4n3)CC2)cc1 (stereo unspecified)	-12	-14
47	COc1ccnc(NCC2COc3ccccc3C2)n1 (stereo unspecified)	15	13
48	O=C(c1nc2ccccc2[nH]1)c1ccccc1[N+](=O)[O-]	10	6

Profiles from above.
C=CCOc1ccc(C=CC(=O)c2ccc(OCC(=O)N(C)C)cc2)cc1 as listed: NPYLR7 agonist: -1; NPYLR7 agonist max-min: -2
Nc1ncc(C(=O)N2CC(c3cccnc3)C2)c(-c2ccccc2)n1 as listed: NPYLR7 agonist: 24; NPYLR7 agonist max-min: 26

Following part
cpd	Compound	NPYLR7 agonist	NPYLR7 agonist max-min
49	COC(=O)c1cc2n(n1)CCCN(C(=O)c1ccccc1-c1ncc[nH]1)C2	13	7
50	CN(C)c1nc(Nn2cnnc2)nc(N(C)C)n1	-1	-1
51	CN(C)S(=O)(=O)CCNC1CCN(Cc2ccccc2)CC1	16	0
52	CCCNC(=O)C1(C)CCCN(Cc2cc(-c3ccccc3)n(C)n2)C1 (stereo unspecified)	-2	-4
53	NC(=O)c1cncc(/C=C/c2ccccc2)c1	3	-1
54	O=c1c2sccc2nc(SCc2cc(=O)n3cc(Cl)ccc3n2)n1C1CC1	7	4
55	Cc1nccn1CCC(=O)NC[C@@H]1CC[C@H]2C[C@@H]1C2(C)C	31	21
56	CC(C)N(CCNC(=O)c1cccnc1Oc1ccccc1)C(C)C	1	-4
57	CCc1c(C(=O)N(Cc2cccs2)C(CC)CO)csc1C (stereo unspecified)	13	-4
58	COc1ccc(OC)c(NC(=O)C2(C)CCN2Cc2cc3ccccc3o2)c1 (stereo unspecified)	5	2
59	CC(=O)c1cccc2c1OC(F)(F)C(=O)N2Cc1ccc(F)cc1	4	1
60	CC(=O)NC1SC=CN1C (stereo unspecified)	-2	-6
61	O=C(COc1ccccc1-c1cnoc1)N/N=C\C1=C(Cl)c2ccccc2OC1	1	-3
62	Cc1ccc(S(=O)(=O)N(Cc2csc(COc3cccc(C)c3)n2)C(C)C)cc1	-6	4
63	Cc1cc2nc(C(=O)NCc3cn4ccccc4n3)cc(C)n2n1	5	3
64	CN1CCC2(CCN(C(=O)NCc3ccco3)CC2)C1	9	5
65	CN(Cc1ccccc1OC(F)(F)F)CN1C(=O)CC(C)(C)C1=O	-3	21
66	CN(C)c1ccc(NC(=O)c2ccccc2Cl)cc1CN(Cc1ccco1)C(=O)C1CC1	-6	6
67	C=CCn1c2[n+](c3ccccc31)CC(O)CS2 (stereo unspecified)	2	0
68	Cc1nnc(-c2cc3ccccc3n2CC(=O)Nc2ccccc2F)o1	13	8
69	COc1ccc(OC)c(C=NNC(=O)c2cc(-c3ccc(Cl)c(Cl)c3)n[nH]2)c1	2	4
70	CCOC(=O)c1nn(-c2ccc(OC)cc2)c(=O)c2c(NC(=O)CC3CCCCC3)scc12	-2	-2
71	CCCCS(=O)(=O)N(C)C(=O)C1CC1c1c(F)cccc1F (stereo unspecified)	8	5
72	CCOc1ccc(-n2cnc3ccccc32)cc1C(N)=O	17	9

In another format: results already given
Every second line gives: NPYLR7 agonist, NPYLR7 agonist max-min
67. C=CCn1c2[n+](c3ccccc31)CC(O)CS2 (stereo unspecified)
  2, 0
68. Cc1nnc(-c2cc3ccccc3n2CC(=O)Nc2ccccc2F)o1
  13, 8
69. COc1ccc(OC)c(C=NNC(=O)c2cc(-c3ccc(Cl)c(Cl)c3)n[nH]2)c1
  2, 4
70. CCOC(=O)c1nn(-c2ccc(OC)cc2)c(=O)c2c(NC(=O)CC3CCCCC3)scc12
  -2, -2
71. CCCCS(=O)(=O)N(C)C(=O)C1CC1c1c(F)cccc1F (stereo unspecified)
  8, 5

The listing continues.
cpd	Compound	NPYLR7 agonist	NPYLR7 agonist max-min
73	Cc1n[nH]c(C)c1CCc1n[nH]c(=O)n1C1CCCCC1	3	11
74	CN(C)CCCNC(CC(=O)Nc1ccc(Oc2ccccc2)cc1)C(=O)O (stereo unspecified)	-8	-7
75	COCCCNC(=O)CN1C(=O)CSC(c2cc(OC)ccc2OC)c2c(-c3ccccc3)nn(-c3ccccc3Cl)c21 (stereo unspecified)	17	21
76	CC(C)CN(CC(C)C)C(=O)CN1C(=O)NC2(CCCCCC2)C1=O	1	7
77	COc1ccccc1N1CCN(C2Sc3ccccc3NC2=O)CC1 (stereo unspecified)	-3	-4
78	CCCNC(=O)c1cc(Br)ccc1O	4	10
79	CC1(C)C(C=C(Cl)Cl)C1C(=O)OCc1cccc(Oc2ccccc2)c1 (stereo unspecified)	-7	4
80	CC(C)N(CC(=O)NCC(F)(F)F)C1CCCC1	7	4
81	COc1ccc2nc(N(Cc3ccco3)C(=O)c3cc(C)nn3C)sc2c1	4	1
82	CCn1c(SCC(=O)Nc2ccc3c(c2)OCCO3)nc2c(-c3ccccc3)c[nH]c2c1=O	-1	0
83	CCc1nnc(SCc2ccc(OCCC(C)C)cc2)n1N	-12	-20
84	CCC(CO)N(CC1CCCN(S(C)(=O)=O)C1)c1ccccc1 (stereo unspecified)	5	3
85	CN1CCN(n2c3c(c(SCC(=O)Nc4nc5ccccc5s4)nc2=O)CCC3)CC1	-6	-9
86	O=C(NC1CC1)C1CCN(C2CCN(Cc3cccn3-c3cccnc3)CC2)CC1	13	5
87	O=C(Cc1csc(-n2cccc2)n1)Nc1ccc2c(c1)OCCO2	-2	-3
88	COc1ccccc1C(=O)NC1CCN(c2ccccc2C(=O)N2CCCC2)CC1	3	9
89	O=C(c1ccc2nc[nH]c2c1)N1CCCC(CCc2ccccc2)(C(=O)O)C1 (stereo unspecified)	4	1
90	CCCCCN1CC2=C(C1=O)C(c1ccc(C)cc1)NC(=O)N2 (stereo unspecified)	3	-1
91	O=S(=O)(NCC1CCN(c2ncccn2)CC1)c1ccccc1Cl	-5	-8
92	COc1ccc(SCC(=O)N(CCn2cccn2)c2nc3c(F)cccc3s2)cc1	-16	-22
93	COc1ccc2oc(=O)c(-c3nnc(-c4cnc5ccccc5c4)o3)cc2c1	-2	-8
94	CCOC(=O)c1cc(C(C)(C)C)n(C2CCN(C(=O)c3c(F)c(F)c(F)c(F)c3F)CC2)n1	-7	-6
95	O=C(Cn1cnc2ccsc2c1=O)Nc1ccc2c(c1)OCCO2	2	5
96	CCCN(C(=O)c1ccc(Cl)cc1Cl)C(C)c1nc2ccccc2c(=O)n1-c1ccc(OCC)cc1 (stereo unspecified)	0	-5
97	Cc1cc(-c2ccc3c(c2)OCO3)cnc1N	-5	-6
98	COc1cc(Cl)ccc1OCc1cc(C(=O)N2CCCC2c2ccc(F)cc2)no1 (stereo unspecified)	3	4
99	O=C(/C=C/c1cccc(Cl)c1Cl)N1CCN(Cc2ccccn2)CC1	-2	-1
100	Cc1nc(CNc2cc(Cl)ccc2N2CCOCC2)no1	-16	-14
101	COc1ccc(-c2cc(C)cnc2-n2cnnc2)c2ccc(C)nc12	14	8
102	CCCn1nc(C(=O)N2CCCC2)c2c1CCC(NCc1cccc(OC(F)(F)F)c1)C2 (stereo unspecified)	17	3
103	COc1cccc(CN(CC(O)COCc2ccccc2)CC2CCCO2)c1 (stereo unspecified)	23	23
104	Cc1cc(C)cc(Oc2cc(C(F)(F)F)nc(SCc3ccccc3C)n2)c1	-3	0
105	CC(NC(=O)c1cc(Br)ccc1I)C1CC1 (stereo unspecified)	7	6
106	Cn1c(=O)[nH]c(=O)c2c1nc(NCCO)n2Cc1ccccc1	-2	55
107	Cc1ccc(NC(=O)Cn2c(=O)n(Cc3ccccc3)c(=O)c3sc4ccccc4c32)cc1	1	-9
108	CC(C)(C)c1ccc(OCC(=O)Nn2cnnc2)c(Br)c1	-3	2
109	COc1ccc(-c2ccc(CCC(=O)NCCCN3CCCC3=O)n2-c2ccc(SC)cc2)cc1	0	-2
110	COCCCNC(=O)CC(c1ccc(OC)cc1)c1cn(C)c2ccccc12 (stereo unspecified)	1	9
111	CC(C)(C)O[C@H]1CCCC2=CC(=O)CC[C@@]21C	-5	-6
112	CCN(C(=O)NCc1ccc(C)cc1)C(C)c1ccc(C#N)cc1 (stereo unspecified)	4	3

Screening results from PubChem.
